Screens (PubChem)
PrP 5UTR inh: suppresses PrP 5' UTR mRNA reporter expression; cell-based PrP 5' UTR mRNA reporter, plate reader; inhibition, % (test concentration not listed); 0.35% of 340,000 active; AID 488862;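 active = every replicate at 50% or more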;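 also: 0 = median of the neutral control wells; tested in H4 reporter cells; numbers are from one replicate; inactives centre near -14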
BJeLR viability: kills HRASV12-expressing BJeLR cells; BJeLR (HRASV12) viability, CellTiter-Glo ATP luminescence, 48 h; reference of the scale not given here; inhibition, % (test concentration not listed); 0.17% of 300,000 active; AID 1554;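 active = replicate mean above 50%; inconclusive = above 50% but judged a plate artefact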;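 also: 50 nL library stock added to about 25 µL; numbers are from one replicate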
ugtP null kill: growth inhibition of S. aureus ugtP deletion strain. S. aureus RN4220 ugtP deletion, OD600 growth, 16 h; some inactives read as strong as hits. growth inhibition, % (concentration not given with the values). 0.54% of 330,000 active. AID 1259309;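 active = z-score under -3 and OD600 up to 0.15 on both plates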;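 also: plate controls were untreated wells for no effect and antibiotic for full effect; wells of about 80 µL received 100 nL stock; the first replicate is given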
RN4220 kill: S. aureus RN4220 growth inhibition; OD600, 16 h; inhibition, % (concentration not given with the values); 0.33% of 330,000 active; AID 1259311;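 active = z-score of -3 or lower and OD600 up to 0.18 on both plates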;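 also: plate controls were untreated cells for no effect and reference antibiotic for full effect; stock transfer was 100 nL into about 80 µL; one replicate is shown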
Mtb hypoxia rep: reduces hypoxia-regulated biosensor signal in M. tuberculosis. M. tuberculosis hypoxia-regulated fluorescent reporter, fluorescence. AID 1159583. fluorescence inhibition, % (no concentration beside the values). 0.1% of 300,000 active;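 active = 35 to 45% if threefold the growth effect, above 45% if 1.5-fold the growth effect; inactive = the rest, general growth blockers included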;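 also: wells of about 50 µL received 100 nL stock; 0% = vehicle wells and 100% = reference inhibitor wells; whole bacteria with a GFP reporter of the hypoxia response; strong numbers were not always called active; many hits fall short of the cut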
Autofluor counter: flagged as autofluorescent in microsphere protease counterscreen; compound autofluorescence counterscreen, microsphere flow cytometry; active compounds read high; fluorescence intensity (concentration not given with the values); 3.1% of 360,000 active; AID 624483;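 active = at least 3 SD above the mean of all compounds, about 16000 in these data; inconclusive = too few beads counted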;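 also: 100 nL of 1 mM stock went into each well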
Mtb hypoxia rep growth: further read-out of Mtb hypoxia rep, marked with its call; growth inhibition, %; measured here: M. tuberculosis growth (absorbance);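 0% = vehicle and 100% = reference antibiotic; read after six days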
Numbers without * were called inactive; ? = inconclusive; · = not tested or not shown.

Value order: PrP 5UTR inh	BJeLR viability	ugtP null kill	RN4220 kill	Mtb hypoxia rep	Mtb hypoxia rep growth	Autofluor counter
> COc1cccc(NC(=O)c2ccc[n+](C)c2)c1
    -22	-3	2	2.5	6	3	3553
> COC(=O)c1cc(NC(=O)CN(c2ccccc2OC)S(=O)(=O)c2ccccc2)ccc1Cl
    -21	4	-9	-19	12	5	2792
> Cc1cc(NC(=O)c2ccc(C#N)cc2)on1
    -26	-2	8	-0.8	3	4	1965
> Cc1cc(C)c2[nH]c(O)c(N=NC(=S)NCC3CCCO3)c2c1 (stereo unspecified)
    -11	8	-7	6.5	5	0	9607
> CCOC(=O)CNc1nc(Cl)nc(Nc2ccccc2)n1
    -14	-3	0	7.9	14	3	4528
> CCCN=C1N(C)C[C@@H]2[C@@H]3C(=O)N(C)C(=O)[C@@H]3[C@](C)(C(=O)OC)N12
    -28	·	5	2.1	-5	0	3098
> Cc1nccn1CC(O)COc1ccc([N+](=O)[O-])cc1 (stereo unspecified)
    -7	-5	5	2.1	-1	1	3064
> O=C(O)c1ccc(NC(=O)c2cc3ccccc3o2)cc1
    -18	3	10	7.8	7	4	3622
> Cc1ccc(S(=O)(=O)N(C)CCCC(=O)n2nc(C)cc2C)cc1
    -20	0	0	1.9	·	·	4138
> O=C(CNC(=S)N(CCCN1CCOCC1)Cc1cccs1)NCc1ccccc1Cl
    -3	-1	-5	-1.6	-3	13	5411
> CCOc1ccccc1N1CCN(C(=O)c2ccc3[nH]c4c(c3c2)CCCC4)CC1
    3	-21	-13	-3.6	5	4	1989
> Cc1ccc2sc(N3CCN(CCNC(=O)c4ccco4)CC3)nc2c1C
    -25	3	-21	0.2	7	11	5902
> CCOC(=O)c1ccccc1NC(=O)COC(=O)c1c(CC)noc1C
    -16	-4	1	6.0	3	3	·
> CSC(=S)N/N=C/c1ccc(N(C)C)cc1
    -34	-2	·	·	·	·	1952
> COc1ccc(N2CCN(C(=O)CSc3nnnn3C3CC3)CC2)cc1
    -25	·	11	7.7	10	7	7835

Twelve structures already listed, sorted by heavy-atom count, ascending.
Value order: PrP 5UTR inh	BJeLR viability	ugtP null kill	RN4220 kill	Mtb hypoxia rep	Mtb hypoxia rep growth	Autofluor counter
> CSC(=S)N/N=C/c1ccc(N(C)C)cc1
    -34	-2	·	·	·	·	1952
> Cc1cc(NC(=O)c2ccc(C#N)cc2)on1
    -26	-2	8	-0.8	3	4	1965
> COc1cccc(NC(=O)c2ccc[n+](C)c2)c1
    -22	-3	2	2.5	6	3	3553
> Cc1nccn1CC(O)COc1ccc([N+](=O)[O-])cc1 (stereo unspecified)
    -7	-5	5	2.1	-1	1	3064
> CCOC(=O)CNc1nc(Cl)nc(Nc2ccccc2)n1
    -14	-3	0	7.9	14	3	4528
> Cc1cc(C)c2[nH]c(O)c(N=NC(=S)NCC3CCCO3)c2c1 (stereo unspecified)
    -11	8	-7	6.5	5	0	9607
> CCCN=C1N(C)C[C@@H]2[C@@H]3C(=O)N(C)C(=O)[C@@H]3[C@](C)(C(=O)OC)N12
    -28	·	5	2.1	-5	0	3098
> CCOC(=O)c1ccccc1NC(=O)COC(=O)c1c(CC)noc1C
    -16	-4	1	6.0	3	3	·
> Cc1ccc2sc(N3CCN(CCNC(=O)c4ccco4)CC3)nc2c1C
    -25	3	-21	0.2	7	11	5902
> CCOc1ccccc1N1CCN(C(=O)c2ccc3[nH]c4c(c3c2)CCCC4)CC1
    3	-21	-13	-3.6	5	4	1989
> O=C(CNC(=S)N(CCCN1CCOCC1)Cc1cccs1)NCc1ccccc1Cl
    -3	-1	-5	-1.6	-3	13	5411
> COC(=O)c1cc(NC(=O)CN(c2ccccc2OC)S(=O)(=O)c2ccccc2)ccc1Cl
    -21	4	-9	-19	12	5	2792

The listing continues.
Value order: PrP 5UTR inh	BJeLR viability	ugtP null kill	RN4220 kill	Mtb hypoxia rep	Mtb hypoxia rep growth	Autofluor counter
> CC1CCN(CC(C)OC(=O)c2ccco2)CC1 (stereo unspecified)
    -26	-11	5	3.5	1	-3	5820
> CC1(c2ccc3ccccc3c2)NC(=O)N(CC(=O)NCc2cccs2)C1=O (stereo unspecified)
    -19	-7	0	5.1	13	9	2281
> O=C(NCC1CCCO1)C(=O)c1c[nH]c2ccccc12 (stereo unspecified)
    -20	-5	5	5.3	13	5	1991
> S=C(Nc1ccc(Cl)cc1)c1sc(N2CCCCC2)nc1N1CCOCC1
    -10	5	4	-1.8	-3	-3	1618
> O=C(O)Cn1cnc2sc3c(c2c1=O)CCCC3
    -42	-2	9	4.9	1	14	4469
> CC(=O)c1sc(NC(=O)c2ccc(Cl)cc2)nc1C
    -80	-17	5	6.3	1	-2	3377
> CN(C)c1nc(C(=O)OCCO)nc(N(C)C)n1
    -39	0	-14	9.4	19	27	9176
> COc1ccc(-n2c(C)cc(C(=O)CN3C(=O)NC4(CCc5ccccc54)C3=O)c2C)cc1 (stereo unspecified)
    -15	-4	-7	0.1	0	4	2445
> O=[N+]([O-])c1cc(C(F)(F)F)ccc1NCCc1c[nH]c2ccccc12
    -12	26	21	7.6	6	-7	2498
> Cc1cc(C(F)F)nn1CC(=O)NC1C(=O)N2C(C(=O)O)=C(CSc3nnnn3C)CSC12 (stereo unspecified)
    -13	3	100*	100*	·	·	4445
> COc1ccc(/C=C/C(=O)Nc2cc(S(=O)(=O)N3CCCCC3)ccc2N2CCCCC2)cc1OC
    -15	-10	·	·	·	·	10317
> CNc1nc(C)c(C#N)c(-c2ccccc2)c1C(C)=O
    -6	9	4	0.0	·	·	3609
> Cc1c(NC(=O)CSc2ccc(Cl)cc2)cccc1-c1nc2ncccc2o1
    -9	-4	-2	25	13	7	9792
> Cc1ccc(CN2CCN(Cc3ccc4ncccc4c3)CC2CCO)cc1 (stereo unspecified)
    -20	-3	0	4.9	11	5	3488
> O=C(Nc1ccccc1)OC1CCCCc2cccnc21 (stereo unspecified)
    -15	6	1	3.6	7	4	3832
> COc1ccc(S(=O)(=O)Nc2cccc3c2OC(CN(C)Cc2ccc(Cl)c(Cl)c2)C(C)CN(C(C)CO)C3=O)cc1 (stereo unspecified)
    ·	·	11	4.8	-1	8	·
> CC(=O)OC1N=C(c2ccccc2)c2ccccc2NC1=O (stereo unspecified)
    -12	1	-4	1.6	8	14	11539
> COC(=O)C(N)CS (stereo unspecified)
    ·	·	3	5.8	·	·	·
> CCc1ccc(NC(=O)C(=O)NCc2ccccn2)cc1
    -70	0	3	0.8	14	-2	3240
> NC(=O)C(Cc1ccccc1)N1C(=O)c2ccccc2C1=O (stereo unspecified)
    -18	2	4	4.1	7	5	4896
> COc1ccccc1C(=O)N1CC2(C)CC1CC(C)(C)C2 (stereo unspecified)
    -17	8	4	5.3	·	·	4743
> CC[C@]12c3[nH]c4cc(CCC(=O)N(C)C)ccc4c3CCN1C(=O)[C@@H](CC(=O)NCC13CC4CC(CC(C4)C1)C3)C[C@@H]2C(=O)N1CCN(C(=O)c2ccco2)CC1
    -14	·	-5	-0.7	2	16	3495
> COc1ccc(Cn2c(CCC(=O)O)nc3cccnc32)cc1
    -5	7	4	1.5	2	1	9993
> CC(=NNc1nc(C(C)(C)C)cs1)c1ccc(O)cc1
    ·	·	-10	-3.4	6	0	·
> COC(=O)N/N=C(\C)c1ccco1
    -30	8	·	·	·	·	4325
> CC(C)(C)OC(=O)C[C@@H]1C/C=C\C[C@@H](CC(=O)N(CCO)Cc2ccccc2)C(=O)N2CCC[C@H]2COC1=O
    6	·	3	2.2	-3	3	3407
> O=C(c1ccc(N2CCOCC2)c([N+](=O)[O-])c1)N1CCN(c2ccccc2F)CC1
    1	·	-7	-3.6	-3	-4	2845
> COC(=O)NN=Cc1cccc(OC(=O)c2cccs2)c1
    ·	·	0	4.2	13	8	·
> CC(C)N(CC#CC(O)(c1ccccc1)c1ccccc1)C(C)C
    -15	-7	16	7.0	16	13	4670
> COCCCn1c(SCc2cccc(C(F)(F)F)c2)nc2cc(OC)c(OC)cc2c1=N
    -13	-3	-19	9.8	3	3	10444
> CN(C)S(=O)(=O)c1ccc(NC(=O)CN2CCC(Cc3ccccc3)CC2)cc1
    -35	2	10	-8.0	4	1	5126
> O=c1c(O)c(-c2ccc(O)c(O)c2)oc2cc(O)cc(O)c12
    10	1	5	41	2	4	5853
> CCOC(=O)c1c(C)[nH]c(C)c1S(=O)(=O)N(C)CC(=O)NCc1cccc(Br)c1
    -8	-15	-4	3.4	-2	-6	5735
> CCOC(=O)c1sc2nc(N3CCOCC3)c3c(c2c1N)CC(C(C)C)OC3 (stereo unspecified)
    -8	-1	2	4.1	-8	-7	2037
> CCOc1cccc(-c2cc(C(=O)Nc3ccon3)c3ccccc3n2)c1
    -7	8	-16	-5.5	8	1	4814
> Cc1ccc(CNS(=O)(=O)c2ccc(CN3C(=O)c4cccnc4C3=O)s2)o1
    -36	-4	5	3.2	14	5	5606
> CN(Cc1ccccc1)S(=O)(=O)c1ccc(NS(C)(=O)=O)cc1
    -20	-3	1	2.9	11	2	7695
> O=c1[nH]c(C2CCCN(S(=O)(=O)c3ccccc3)C2)nc2c1nnn2Cc1ccccc1 (stereo unspecified)
    -10	5	-6	6.6	0	6	22466*
> CN(C)Cc1cc2ccccc2c2c1COC2
    -9	6	0	-0.6	6	0	?
> O=C(NCC1CCCN(C(=O)c2cccc(C(F)(F)F)c2)C1)c1ccc(F)cc1 (stereo unspecified)
    -8	17	9	0.5	8	1	6376
> COc1ccc(C(=O)NCc2ccncc2)cc1OC
    -5	-2	-4	3.1	12	1	2638
> CCc1ccc(-c2cn(-c3nc(C)cc(C)n3)c(=N)o2)cc1
    2	7	0	-0.2	2	2	23477*
> COc1ccc(C(O)C(C)NC(C)C(O)c2ccc(OC)cc2)cc1 (stereo unspecified)
    ·	-12	5	3.3	1	8	3680
> O=C(Nc1ccc2c(c1)OCO2)C1CC(c2ccccc2O)=NO1 (stereo unspecified)
    -20	-12	4	5.6	-4	0	3762
> NC(=O)C1=C[C@@H](c2ccc3c(c2)OCO3)C[C@@H](OCCCCO)O1
    -35	11	·	·	·	·	4056
> O=c1c2ccccc2ncn1-c1ccc(Cl)cc1[N+](=O)[O-]
    -11	-3	7	14	6	8	4469
> Fc1ccc(-c2cc(-c3nnc4n3CCCCC4)c3ccccc3n2)cc1
    -20	-5	0	1.6	5	7	2015
> COC(=O)c1ccc(C23CC4(C2)C(CN(Cc2ccc(-c5ccccc5)cc2)C4c2ccccc2)C3c2ccccc2)cc1 (stereo unspecified)
    ·	·	-1	3.6	-4	7	·
> Cc1nn(-c2ccccc2)c(Cl)c1/C=N/Nc1ccc(Cl)c(C(=O)O)c1
    -52	-12	·	·	·	·	2091
> COc1ccc(NC(=O)CSc2nc3ccccc3c(=O)n2-c2ccc3c(c2)OCO3)c(OC)c1
    -3	-8	-7	-2.9	4	12	?
> O=C(O)CNC(=S)N(Cc1ccccc1)Cc1ccccc1F
    -18	0	5	2.0	2	6	4331
> N=C1/C(=C\c2ccc(SCc3ccco3)o2)C(=O)N=C2SC=NN12
    -27	-7	9	18	8	3	3573
> CC1(C(=O)OCC(=O)Nc2ccc3ccccc3c2)CC1(Cl)Cl (stereo unspecified)
    -18	0	2	5.5	4	-2	3341
> Cc1c(Cl)cccc1NC(=S)NCc1ccc(F)cc1
    -10	3	-6	-3.0	-1	13	4061
> Cc1csc(NC(=O)Cc2coc3cc(C)c(C(C)C)cc23)n1
    -26	9	-21	14	8	17	3457
> Cn1ncc(C#N)c1/N=C/N1CCCCCC1
    -21	-2	·	·	·	·	5177
> COc1ccc(-c2csc(NC(=O)[C@H](C)N3C(=O)C4CC=CCC4C3=O)n2)cc1OC (stereo partly specified)
    -23	·	2	32	4	0	9005
> Cc1ccc(-c2cn3cc([N+](=O)[O-])ccc3n2)cc1
    -31	18	6	6.1	3	0	1985
